Rango dissoc inh: prevents RanGTP from dissociating the Rango-importin beta complex; actives 0.071% (n = 340,000); Biochemical FRET Rango-importin beta, RanGTP-induced dissociation; Potency, µM (top dose mostly 46.1 µM), without a hit: top-dose activity change, negative = inhibition; active means falling FRET ratio curve, often poorly fitted, with flat reads before Ran was added; inconclusive means other falling curves, or compound fluorescence or quenching; inactive means flat or rising ratio curve;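 also: potency is read from the fitted curve at half-maximal effect; % of control where 0% means no effect; nearly all actives have a fitted effect of over 45% in size; -100% = wells without RanGTP and RCC1; the record marks most hits as doubtful in a second field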
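Quantitative HTS using a FRET biosensor: 0.1 uM Rango, 0.25 uM importin beta, 0.6 uM Ran, 2 mM GTP, 0.2 uM RCC1 final, PBS with DTT, Tween-20 and BSA. Post-read taken 45 min after Ran addition.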
GLA inh pH 4.5: inhibitors of human alpha-galactosidase A at pH 4.5. P06280. purified enzyme, 4-MU-alpha-Gal fluorescence, pH 4.5. activity change, negative = inhibition, % at 105 µM. 230,000 tested, under 10 active; inconclusive = small, poorly fitted or top-dose-only inhibition, or a rising curve; inactive = flat fitted curve, though single readings scatter; no compound was filed as active;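 also: 0% = full activity with enzyme and -100% = basal without enzyme; dose as in the result columns while the protocol names 77 µM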
Rango complex inh: prevents formation of the Rango-importin beta complex; Rango CFP/YFP FRET sensor + importin beta, 45 min; Q14974; AID 540263; Potency, µM (highest dose often 92.2 µM), for the others: top-dose inhibition of complex formation; actives 0.031% (n = 340,000); active = rising FRET ratio curve, often small or poorly fitted; inconclusive = mostly compound fluorescence or quenching in the first reads; inactive = flat curves in all reads;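 also: potency is read from the fitted curve at half-maximal effect; 0% = DMSO wells and 100% = buffer wells lacking importin beta; nearly all actives have a fitted effect of over 15% in size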
Target sequence (Q14974 whole entry, looked up): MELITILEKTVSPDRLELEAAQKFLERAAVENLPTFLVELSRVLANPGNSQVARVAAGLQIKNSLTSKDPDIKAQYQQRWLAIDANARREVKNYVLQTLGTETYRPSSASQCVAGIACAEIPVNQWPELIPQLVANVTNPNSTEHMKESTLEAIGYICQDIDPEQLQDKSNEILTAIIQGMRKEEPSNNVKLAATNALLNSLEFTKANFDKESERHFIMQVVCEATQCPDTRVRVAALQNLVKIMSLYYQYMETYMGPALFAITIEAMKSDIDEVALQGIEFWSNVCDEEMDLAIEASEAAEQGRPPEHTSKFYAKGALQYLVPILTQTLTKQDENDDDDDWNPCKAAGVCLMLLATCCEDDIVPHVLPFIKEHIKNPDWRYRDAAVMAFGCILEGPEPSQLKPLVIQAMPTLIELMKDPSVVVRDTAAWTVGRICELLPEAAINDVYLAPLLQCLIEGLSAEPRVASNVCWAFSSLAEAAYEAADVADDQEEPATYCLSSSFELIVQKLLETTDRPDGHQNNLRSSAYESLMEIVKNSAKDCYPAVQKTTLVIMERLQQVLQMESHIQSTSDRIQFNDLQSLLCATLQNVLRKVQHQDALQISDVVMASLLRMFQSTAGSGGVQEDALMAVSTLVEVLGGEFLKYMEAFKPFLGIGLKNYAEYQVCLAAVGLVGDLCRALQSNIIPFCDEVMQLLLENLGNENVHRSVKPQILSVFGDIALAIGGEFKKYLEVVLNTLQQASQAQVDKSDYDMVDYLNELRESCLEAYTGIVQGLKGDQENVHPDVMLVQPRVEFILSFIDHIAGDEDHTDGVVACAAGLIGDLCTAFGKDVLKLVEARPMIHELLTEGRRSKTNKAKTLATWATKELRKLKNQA
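Inhibition scored from the CFP 486 nm/YFP 530 nm FRET ratio 45 min after adding 0.125 microM importin beta to 50 nM Rango biosensor preincubated 5 min with compound (room temperature, PBS with DTT, Tween-20, BSA). No-importin wells as positive control.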
miR-21 FLuc: miR-21 reporter, rising signal. HeLa miR-21 FLuc reporter, luciferase, 48 h. Potency, µM (highest dose often 38.3 µM), for the others: at the top dose reporter change, positive = more light. 340,000 tested, under 10 active; active = well fitted rising curve with a large enough effect; inconclusive = small, poorly fitted or top-dose-only effect; inactive = no such curve, though single readings can be large or run the other way;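 also: % of control where 0% means no effect; miR-21 action dims this reporter so a rising signal means less miR-21 action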
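Luminescence from a firefly luciferase reporter carrying a miR-21 binding site downstream, stably expressed under a CMV promoter in HeLa cells that make miR-21 endogenously, reports miRNA modulation after 48 h compound exposure up to approximately 40uM final.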
* hit, by the source's call; ? = inconclusive; nt = not tested or not shown; & = joins results of further samples.

Start of the data: the first 4 entries (preview)
SMILES	Rango dissoc inh	GLA inh pH 4.5	Rango complex inh	miR-21 FLuc
N#CC1(NC(=O)COC(=O)c2cccc(-n3cnnn3)c2)CCCCC1	-17%	nt	-1.3%	nt
Cc1ccccc1C(=O)OCn1nnc2ccccc2c1=O	8%	2	-0.4%	-13%
Cc1cc(N)ccc1-n1c(C)ccc1C	-13%	0	1.1%	-5%
O=c1cnnc(Nc2cccc(F)c2)[nH]1	0%	6	-5.1%	1%

All compounds of this part, previewed entries included:
SMILES	Rango dissoc inh	GLA inh pH 4.5	Rango complex inh	miR-21 FLuc
N#CC1(NC(=O)COC(=O)c2cccc(-n3cnnn3)c2)CCCCC1	-17%	nt	-1.3%	nt
Cc1ccccc1C(=O)OCn1nnc2ccccc2c1=O	8%	2	-0.4%	-13%
Cc1cc(N)ccc1-n1c(C)ccc1C	-13%	0	1.1%	-5%
O=c1cnnc(Nc2cccc(F)c2)[nH]1	0%	6	-5.1%	1%
CC(C)CN1C(=O)C(=O)N(CC(=O)N2CCC(Cc3ccccc3)CC2)C1=O	1%	11	2.9%	-2%
Cc1ccc2cc(CN(CC3CCCO3)C(=S)NCc3ccco3)c(=O)[nH]c2c1C (stereo unspecified)	0%	-1	?	18%
Cc1[nH]c2ccccc2c1C(=O)CN1C(=O)C(=O)N(C2CCCC2)C1=O	-10%	-2	-3.0%	-9%
Cc1cc2nc(-c3ccc(SCc4ccc(C#N)cc4)nc3)[nH]c2cc1C	0%	-1	-0.2%	8%
CC(C)N1C(=S)SC(C)(C)C1NO (stereo unspecified)	16%	0	-2.3%	-8%
O=[N+]([O-])c1ccc2c(c1)-c1ccccc1C2=NO	-7%	nt	2.2%	nt
C/C=C/c1ccc(OCCOCCNCc2ccccc2)c(OC)c1	?	nt	8.3%	7%
COc1ccccc1N1CCN(C2CCCC(C)C2)CC1 (stereo unspecified)	1%	1	1.0%	-1%
CCc1cc2c(CN3CCN(CCO)CC3)cc(=O)oc2cc1O	?	-6	?	-12%
CC(=O)N=c1n(C)c2ccccc2n1CCOc1ccccc1	11%	-17	2.6%	-29%
Cc1ccc(SC/C(O)=C(\C#N)c2nc3ccccc3n2C)cc1	?	1	?	-25%
CCOC(=O)C1CCN(C(=O)C2COc3ccccc3O2)CC1 (stereo unspecified)	11%	nt	-0.2%	0%
COc1ccc2[nH]cc(CC(=O)O)c2c1	12%	2	-0.5%	-2%
CCN1c2ccccc2NC2C1C(C(C)=O)C(=O)N2c1ccc(Cl)cc1 (stereo unspecified)	?	-7	?	-13%
COc1ccc2[nH]c(=O)c(CN(CC3CCCO3)C(=O)Nc3ccccc3OC)cc2c1 (stereo unspecified)	5%	1	-3.3%	29%
O=c1cc(CN2CCC(Cc3ccccc3)CC2)nc2sccn12	7%	5	-0.3%	-2%
CCOC(=O)Cn1nc(C)n(-c2ccc(C(C)C)cc2)c1=O	3%	-21	-0.3%	-4%
O=C1c2ccccc2CCC12N=NCC2c1ccccc1 (stereo unspecified)	-11%	-2	0.2%	-19%
CCCCCCN(C(=O)CCCCCN1C(=O)NC(c2ccc(-c3ccccc3)cc2)C(C(=O)OCc2ccccc2)=C1C)C(C(=O)NCCCC)c1ccc(-c2ccccc2)cc1 (stereo unspecified)	nt	1&-4	nt	3%
COc1ccccc1CNC(=O)COC(=O)c1ccc(Cl)c(N)c1	1%	5	0.9%	1%
O=C(C1Cc2ccccc2CN1S(=O)(=O)c1ccc(F)cc1)N1CCOCC1 (stereo unspecified)	23%	4	2.2%	-2%
Next section.
SMILES	Rango dissoc inh	GLA inh pH 4.5	Rango complex inh	miR-21 FLuc
O=C(COc1ccccc1)Nc1ccc2c(c1)C(=O)N(CC1CCCO1)C2=O (stereo unspecified)	0%	nt	-1.5%	-5%
Cc1cccc(C(=O)NNC(=S)NC(=O)c2cccs2)c1	9%	nt	-2.3%	14%
Cc1cc(C)c2cc(C#N)c(NCCCNC(=O)CCC(=O)O)nc2c1	?	12	?	-1%
CCC(NCc1cccnc1)c1ccc(OC)c(OC)c1 (stereo unspecified)	-7%	nt	0.2%	nt
CCN1C(=O)[C@@H]2[C@@H](c3ccc(-c4cccc(Cl)c4)c(OC)c3)N3CCCC[C@@]3(C(=O)OC)[C@@H]2C1=O	3%	nt	-1.3%	nt
CCc1ccc(C2c3[nH]c4ccccc4c3CCN2C(=O)c2cc[n+]([O-])cc2)cc1 (stereo unspecified)	3%	-16	-1.3%	25%
C=CC[C@H](CC(=O)N(CCO)Cc1ccccc1)C(=O)N[C@@H](COC(=O)[C@@H](CC=C)CC(=O)OC(C)(C)C)Cc1c[nH]c2ccccc12	3%	nt	-0.6%	nt
CCOc1ccc(NS(=O)(=O)c2ccc3c(c2)N(C(C)=O)CCS3)cc1	9%	nt	-1.9%	8%
Cc1ccc(S(=O)(=O)N2CCOCC2)cc1C(=O)NCC1CCCCC1	-2%	nt	-0.4%	nt
Cc1ccc(-c2nc(-c3nccc4ccccc34)oc2-c2ccccc2)cc1	-5%	?	0.3%	-52%
CCCCOC(=O)CN1C(=O)c2ccc(C(=O)OCCCC)cc2C1=O	8%	7	3.0%	-1%
COC(=O)c1cc(-c2ccccc2)on1	0%	4	-0.7%	-3%
CCOc1ccc(C(=O)NCC(=O)OCc2c(C)noc2C)cc1	-12%	0	-1.6%	1%
O=C(Nc1ccc(N2CCOCC2)cc1Cl)C1CCN(C(=O)OCc2ccccc2)CC1	-11%	-3	-0.2%	6%
CCCCN(C)CCCNC(=O)c1cc(-c2cccs2)nc2ccccc12	9%	nt	-1.9%	-6%
O=C(NCCc1c[nH]c2ccccc12)C1CCN(S(=O)(=O)c2ccccc2F)CC1	9%	3	-0.7%	7%
O=C(O)CCC(NC(=O)C1CCCN1C(=O)OCc1ccccc1)C(=O)O (stereo unspecified)	7%	-4	2.6%	0%
Cc1sc(NC(=O)c2ccc(OCC(C)C)cc2)c(C(N)=O)c1-c1ccc(Cl)cc1Cl	-3%	26	-3.3%	-4%
COc1ccc(NS(=O)(=O)c2ccc(NC(=S)NC(=O)CC(C)C)cc2)cc1	7%	-9	-7.2%	13%
CN1OC[C@@H]2CN(C(=O)C(C)(C)C)[C@H](c3cccc(N4CCOCC4)c3)C[C@@H]21	0%	nt	0.0%	nt
O=c1cc(-c2ccc(F)cc2)oc2ccccc12	-14%	nt	-2.8%	nt
Cc1cc(NC(=O)CCN2CCC(C(N)=O)CC2)ccc1Br	0%	-1	3.3%	-13%
CCCn1c(C(=O)OC)cc2c1ccn2-c1ccc(F)cc1	-10%	13	3.7%	-16%
COc1ccc(N2CCN(S(=O)(=O)c3cccc4nsnc34)CC2)cc1	-8%	3	-3.4%	-1%
O=C(OC(C(=O)NCc1cccs1)c1ccccc1Cl)c1ccco1 (stereo unspecified)	-10%	1	-2.4%	-1%
Other compounds:
SMILES	Rango dissoc inh	GLA inh pH 4.5	Rango complex inh	miR-21 FLuc
Cc1ccc(COC(=O)CCCN=C2NS(=O)(=O)c3ccccc32)cc1	8%	nt	5.6%	nt
CCCc1cc(-n2ccnc2)n2c(nc3ccccc32)c1C#N	?	5	?	26%
Cc1ccc(NC(=O)CCNS(=O)(=O)c2ccc(OC(F)(F)F)cc2)c(O)c1	1%	nt	-1.8%	3%
N#CC1=C(N)SC(N)=C(C#N)C1C1C=CCCC1 (stereo unspecified)	?	-3	?	-2%
COc1ccc(C(=O)CSc2nnc(-c3cnccn3)n2Cc2ccco2)cc1	6%	-1	1.0%	-2%
O=C(/C=C/c1ccc(Br)o1)NCc1ccccc1	-10%	6	?	0%
O=C(COc1ccc(Cl)cc1)Nc1ccc2c(c1)nc1n2CCOC1	21%	nt	1.7%	-9%
COC(=O)[C@@H](NC(=O)NCCC1=CCCCC1)C(C)C	2%	-2	1.8%	-8%
CCOC(=O)C(=O)Nc1nnc(C2CCCCC2)s1	-8%	9	-5.9%	-5%
Cc1ccc(C2CC(=O)Nc3sc(C(N)=O)c(N)c32)cc1 (stereo unspecified)	-4%	2	5.4%	-2%
O=C1CCN(Cc2ccc(O)cc2)CCN1[C@H](CO)Cc1ccccc1	7%	nt	-1.8%	0%
COc1cc(/C=C/c2ccc3cccc(OC)c3n2)c(O)c([N+](=O)[O-])c1	12%	2	-1.1%	-1%
O=C1N(c2ccc(Cl)c(Cl)c2)CN(Cc2ccccc2)CN1n1cnnc1	0%	0	-1.3%	-6%
Cc1ccc(S(=O)(=O)N(C)c2ccccc2C(=O)Nc2ccc(F)cc2F)cc1	-8%	nt	-0.2%	5%
CN(C(=O)CCn1c(=S)oc2ccccc21)c1ccc(F)cc1	-7%	-24	-0.9%	-11%
O=C(Cc1cccs1)N/N=C/C=C/c1ccccc1	-8%	3	2.7%	-43%
CC(NC(=O)CC(c1ccccc1)c1cc(Cl)ccc1O)c1ccccc1 (stereo unspecified)	14%	-3	-0.9%	27%
Cc1ccc(N(C(=O)Cn2nnc3ccccc32)C(C(=O)NCc2ccccc2)c2ccccn2)cc1 (stereo unspecified)	-4%	0	1.0%	-10%
CN1c2ccccc2C(=O)/C(=C\Nc2ccc(F)cc2F)S1(=O)=O	-4%	11	-0.1%	-2%
Cc1ccc(O)c(Nc2c3ccccc3nc3ccccc23)c1	?	nt	?	-1%
C=CCn1c(C)c(/C=C/c2cc[n+](C)cc2)c2ccccc21	?	nt	?	?
COc1cccc(N2CCN(C3CC(=O)N(c4ccc(C)c(Cl)c4)C3=O)CC2)c1 (stereo unspecified)	4%	1	-1.2%	-11%
O=C1NCCO1	-15%	nt	-5.7%	nt
Cc1ccc(NC(=O)/C=C/C(=O)O)c([N+](=O)[O-])c1	1%	6	-0.7%	-11%
CCOC(=O)c1c(C)c(C(=O)NCc2ccco2)c(C)n1C	-10%	?	-0.6%	-16%

Three compounds already listed, arranged by the number in miR-21 FLuc, highest first.
SMILES	Rango dissoc inh	GLA inh pH 4.5	Rango complex inh	miR-21 FLuc
COc1cc(/C=C/c2ccc3cccc(OC)c3n2)c(O)c([N+](=O)[O-])c1	12%	2	-1.1%	-1%
COc1ccc(C(=O)CSc2nnc(-c3cnccn3)n2Cc2ccco2)cc1	6%	-1	1.0%	-2%
COC(=O)[C@@H](NC(=O)NCCC1=CCCCC1)C(C)C	2%	-2	1.8%	-8%

Continuation.
SMILES	Rango dissoc inh	GLA inh pH 4.5	Rango complex inh	miR-21 FLuc
CCn1c(C)nc2cc(C(=O)N=Nc3c(O)[nH]c4c(C)cc(C)cc34)ccc21	nt	4	nt	-11%
CCc1ccc(NC(=O)Cn2nc(C(F)(F)F)c3c2CCC3)cc1	-4%	-26	3.7%	-8%
CCCCN(CC)S(=O)(=O)c1ccc(C(=O)N=c2sc3cc(NC(C)=O)ccc3n2C)cc1	8%	17	2.6%	-4%
CC1(C)OC(=O)C(=CNCCc2ccc(O)cc2)C(=O)O1	6%	-3	3.2%	1%
Brc1cnc(N2CCCC2)nc1N1CCOCC1	1%	-5	-2.7%	-20%
O=C(CNC(=O)c1ccc(F)cc1)N/N=C/c1cccnc1	13%	nt	1.4%	1%
Cc1ccc(C)c(S(=O)(=O)Nc2ccc(O)c3ccccc23)c1	8%	nt	2.4%	25%
CCC1SC2=NCN(c3ccccc3)CN2C1=O (stereo unspecified)	nt	-13	nt	-4%
CC(C)c1ccc(NC(=O)NCc2ccc(F)cc2)cc1	-15%	9	3.2%	-8%
CC1=C(C(=O)Nc2ccccc2)C(c2cccc([N+](=O)[O-])c2)Nc2nc3ccccc3n21 (stereo unspecified)	0%	4	0.6%	0%

Whole records, looked up by structure. Values in the order: Rango dissoc inh | GLA inh pH 4.5 | Rango complex inh | miR-21 FLuc
Entry for `CCN1C(=O)[C@@H]2[C@@H](c3ccc(-c4cccc(Cl)c4)c(OC)c3)N3CCCC[C@@]3(C(=O)OC)[C@@H]2C1=O` : 3% | nt | -1.3% | nt
Entry for `CCOC(=O)C1CCN(C(=O)C2COc3ccccc3O2)CC1` (stereo unspecified) : 11% | nt | -0.2% | 0%
Entry for `Cc1ccc(NC(=O)/C=C/C(=O)O)c([N+](=O)[O-])c1` : 1% | 6 | -0.7% | -11%
Entry for `N#CC1=C(N)SC(N)=C(C#N)C1C1C=CCCC1` (stereo unspecified) : ? | -3 | ? | -2%

Some of the compounds tested; the hit share may differ from the screen's.
